# Source: PubChem (National Center for Advancing Translational Sciences (NCATS))
# GLA inh pH 4.5: alpha-galactosidase A (human) inhibition, pH 4.5 | purified enzyme, 4-MU-alpha-Gal fluorescence, pH 4.5 | activity change, negative = inhibition, % at 105 µM | 230,000 tested, under 10 active | AID 1467; inconclusive = small, poorly fitted or top-dose-only inhibition, or a rising curve; inactive = flat fitted curve, though single readings scatter; no compound was filed as active;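 further: 0% = full activity with enzyme and -100% = basal without enzyme; dose as in the result columns while the protocol names 77 µM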
# Rango-impB inh: Rango-importin beta binding inhibition. Rango CFP/YFP FRET sensor + importin beta, 45 min. Potency, µM (titrated, usually from 92.2 µM), inactives show at the highest dose inhibition of complex formation. actives 0.031% (n = 340,000); active = rising FRET ratio curve, often small or poorly fitted; inconclusive = mostly compound fluorescence or quenching in the first reads; inactive = flat curves in all reads;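 further: potency means the concentration at half of the fitted maximal effect; 0% = DMSO wells and 100% = buffer wells lacking importin beta; nearly all actives have a fitted effect of over 15% in size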
# Target sequence (Q14974 whole entry, looked up): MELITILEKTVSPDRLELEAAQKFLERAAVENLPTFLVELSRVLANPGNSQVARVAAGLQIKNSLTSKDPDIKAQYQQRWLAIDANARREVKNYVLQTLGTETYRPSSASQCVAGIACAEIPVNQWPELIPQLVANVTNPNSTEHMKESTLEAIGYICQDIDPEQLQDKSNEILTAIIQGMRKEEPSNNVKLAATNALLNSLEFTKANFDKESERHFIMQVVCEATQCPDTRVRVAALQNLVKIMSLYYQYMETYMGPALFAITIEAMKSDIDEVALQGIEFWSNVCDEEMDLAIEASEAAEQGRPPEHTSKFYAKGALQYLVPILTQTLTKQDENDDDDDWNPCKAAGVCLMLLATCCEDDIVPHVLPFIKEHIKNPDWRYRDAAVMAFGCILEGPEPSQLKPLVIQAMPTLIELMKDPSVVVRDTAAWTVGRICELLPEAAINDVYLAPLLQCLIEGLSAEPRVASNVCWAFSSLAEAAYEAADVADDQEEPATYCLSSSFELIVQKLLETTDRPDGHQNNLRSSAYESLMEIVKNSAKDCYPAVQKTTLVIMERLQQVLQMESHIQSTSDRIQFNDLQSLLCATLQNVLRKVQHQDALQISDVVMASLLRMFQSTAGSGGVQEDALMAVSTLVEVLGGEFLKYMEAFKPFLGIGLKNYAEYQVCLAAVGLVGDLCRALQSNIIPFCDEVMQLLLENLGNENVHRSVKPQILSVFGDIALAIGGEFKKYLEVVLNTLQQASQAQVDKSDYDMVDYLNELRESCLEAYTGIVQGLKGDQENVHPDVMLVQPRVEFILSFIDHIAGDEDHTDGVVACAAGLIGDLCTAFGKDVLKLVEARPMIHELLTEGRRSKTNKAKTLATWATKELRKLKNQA
#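 FRET biosensor Rango (snurportin 1 IBB between N-terminal EYFP and C-terminal Cerulean), 50 nM in PBS/1 mM DTT/0.02% Tween-20/0.1% BSA, preincubated 5 min RT with compound; 0.125 microM importin beta added, 45 min RT, CFP/YFP FRET ratio read.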
# miR-21 FLuc: miR-21 reporter, rising signal. Potency, µM (titrated, usually from 38.3 µM), for the others: at the highest dose reporter change, positive = more light. 340,000 tested, under 10 active. HeLa miR-21 FLuc reporter, luciferase, 48 h; active = well fitted rising curve with a large enough effect; inconclusive = small, poorly fitted or top-dose-only effect; inactive = no such curve, though single readings can be large or run the other way;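 further: % of control where 0% means no effect; miR-21 action dims this reporter so a rising signal means less miR-21 action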
#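 HeLa cells stably expressing CMV-driven firefly luciferase with a downstream miR-21 binding sequence, endogenously expressing miR-21, were treated with titrations (up to about 40uM final) for 48 hours at 37 degree Celsius. Luciferase luminescence was read after lysis.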
# Rango dissoc inh: prevents RanGTP from dissociating the Rango-importin beta complex. AID 540253. Biochemical FRET Rango-importin beta, RanGTP-induced dissociation. actives 0.071% (n = 340,000). O95149+P62826. Potency, µM (highest dose often 46.1 µM), without a hit: at the top dose activity change, negative = inhibition; active means falling FRET ratio curve, often poorly fitted, with flat reads before Ran was added; inconclusive means other falling curves, or compound fluorescence or quenching; inactive means flat or rising ratio curve;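 further: potency means the concentration at half of the fitted maximal effect; % of control where 0% means no effect; nearly all actives have a fitted effect of over 45% in size; -100% = wells without RanGTP and RCC1; the record marks most hits as doubtful in a second field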
#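 Compounds sat 5 min at room temperature with 0.1 uM Rango biosensor plus 0.25 uM importin beta, then FRET pre-read. RanGTP-RCC1 (0.6 uM Ran, 2mM GTP, 0.2 uM RCC1) added for 45 min, and the CFP/YFP post-read measured blocked complex dissociation.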
# * hit, by the source's call; ? = inconclusive; . = no result given. These rows are one share of the data. The share of hits here may be higher or lower than overall.
SMILES,GLA inh pH 4.5,Rango-impB inh,miR-21 FLuc,Rango dissoc inh
O=C(Nc1ccc(Cl)cc1)N1CCC(CO)(Cc2ccccc2)CC1,3.6,-0.1%,15.3%,-9.3%
Cc1cc(OCC(=O)OCC(=O)c2ccc[nH]2)ccc1Cl,.,0.4%,.,1.3%
COc1cccc(C2=NOC(C(=O)NCc3cccs3)C2)c1 (configuration not stated),-24.6,-2.1%,-4.2%,24.1%
CC(C)[C@H](NC(=O)OCc1ccccc1)C(=O)OCC(=O)Nc1c(F)cccc1F,2.8,0.5%,1.9%,1.1%
CCCCNC(=O)N1CCc2ccccc2C1,3.4,1.7%,-24.0%,12.7%
O=S(=O)(Nc1ccccc1N1CCCCC1)c1cccs1,6.6,-1.0%,0.1%,20.6%
COCCCNC(=O)C(=O)N/N=C/c1ccc(OCC(=O)Nc2cccc(Cl)c2C)c(OC)c1,-9.7,1.4%,-2.5%,-10.6%
COc1ccc(C(=O)CSc2nnc(-c3cc4ccccc4cc3O)n2Cc2ccco2)cc1,-0.2,-2.5%,25.8%,-2.8%
Cc1cc(/C=C(\C#N)C(=O)NC2CCCCCC2)c(C)[nH]1,-0.3,?,-54.5%,-17.7%
COCCN(C(=O)c1snc(C(N)=O)c1N)C(C(=O)NC1CCCCC1)c1ccc(N(C)C)cc1 (configuration not stated),.,-2.6%,0.2%,-4.9%
CCC(C)n1c(NC(=O)c2ccccc2)c(C#N)c2nc3ccccc3nc21 (configuration not stated),1.7,?,24.9%,?
Cc1ccc(S(=O)(=O)NNC(=O)c2cc(C)cs2)cc1,4.8,-0.2%,-8.9%,-19.4%
CCC(=O)N1CC2(CC(c3cccc(NC(=O)CC(c4ccccc4)c4ccccc4)c3)=NO2)C[C@H]1C(N)=O (some centres not stated),1.7,4.7%,17.9%,10.9%
CC(NC(=O)CSc1ncccn1)c1ccccc1 (configuration not stated),4.6,-2.9%,-3.6%,34.0%
CC(=O)Nc1ccc(NC(=O)C2CCCN(S(=O)(=O)c3ccc(Cl)cc3)C2)cc1 (configuration not stated),.,-0.1%,-2.3%,-9.6%
CC(C)(C)OC(=O)N1CCC(Cc2cc(-c3cccnc3)no2)(C(=O)O)CC1,.,?,.,0.5%
Cc1ccccc1/C=C1\OC(=O)c2ccccc21,-4.9,2.9%,-3.0%,12.1%
O=C(/C=C/c1ccccc1[N+](=O)[O-])NCCCn1ccnc1,1.9,0.3%,-0.9%,-4.3%
O=C(CCCN1C(=O)/C(=C\c2ccco2)SC1=S)Nc1ccc2ccccc2c1,-7.9,0.7%,29.7%,-7.0%
CC(C)C(=O)NC(c1ccc(Cl)cc1Cl)c1ccc2cccnc2c1O (configuration not stated),.,?,-2.1%,2.6%
COc1ccccc1C(=O)N1C(CC(=O)Nc2cc(Cl)ccc2C)C(=O)NC2CCCCC21 (configuration not stated),3.5,-3.3%,16.8%,-9.8%
C=CCn1c(=S)[nH]c2ccccc2c1=O,1.3,3.1%,-4.1%,-5.7%
O=S(=O)(NCC1CCCO1)c1ccc2ccccc2c1 (configuration not stated),-4.5,1.3%,-10.8%,-4.7%
COc1cc(C(=O)O[C@H]2C/C(C)=C/CC[C@@]3(C)O[C@@H]3[C@H](O)[C@@H]2C(C)C)cc(OC)c1OC,.,-0.1%,11.3%,-4.3%
O=C(CCC(=O)NC1CCCCCCC1)Nc1nnc(C(F)(F)F)s1,7.3,2.2%,-3.4%,-20.8%
Cc1cc(NCc2ccncc2)ccc1Br,-3.8,5.8%,-18.5%,20.3%
Cc1ccc(C(=O)N2c3ccc(F)cc3CCC2C)o1 (configuration not stated),0.3,8.6%,1.6%,-0.9%
COCCn1c(SCC(=O)Nc2cc(C)on2)nc2c(c1=O)SC(C)C2 (configuration not stated),0.9,-0.6%,-4.1%,9.6%
CCC(C(=O)NCc1ccc(F)cc1)N(Cc1ccco1)C(=O)c1snc(C(N)=O)c1N (configuration not stated),0.8,-2.1%,-8.2%,22.0%
CC(C)OC(=O)CSc1nc2cc3c(cc2cc1C#N)OCO3,1.6,-3.6%,-43.9%,2.1%
O=C(c1ccncc1)c1ccc(N2CCN(C3CC(=O)N(Cc4cccs4)C3=O)CC2)cc1 (configuration not stated),-4.5,11.1%,29.5%,-7.8%
CCSc1nccc(-c2nn(-c3ccc(C)cc3)ccc2=O)n1,-0.8,-1.1%,23.1%,-7.4%
Cc1ccccc1N=C1N=C(N)c2ccccc21,2.6,-0.1%,-4.5%,7.9%
Cc1cc(C)cc(NC(=O)CSc2nc(CSc3ccc(Cl)cc3)cc(=O)[nH]2)c1,-19.0,7.7%,-12.5%,-11.6%
N=c1sccn1CC(=O)Nc1cc(Cl)ccc1[N+](=O)[O-],-2.1,-1.6%,3.2%,-12.6%
CC(C(=O)Nc1cccc(S(=O)(=O)N2CCOCC2)c1)N1CCN(C)CC1 (configuration not stated),.,1.7%,-3.1%,15.4%
Cc1ccc(S(=O)(=O)N2[C@@H](c3ccc(Br)cc3)C(C(=O)O)=CC[C@H]2c2ccc(C(C)C)cc2)cc1,.,0.0%,.,-1.9%
CCOc1ccc(N(CCCCO)C(=S)NC(=O)c2ccc(C)c(Br)c2)cc1,5.6,0.2%,-13.8%,7.7%
OC(COc1ccccc1)CN1CCN(CC(O)COc2ccccc2)CC1 (configuration not stated),8.7,-1.2%,-1.1%,1.2%
O=S(=O)(NCCC1CC1(Cl)Cl)c1ccccc1 (configuration not stated),-7.5,-1.3%,-3.3%,-15.0%

# Limited to miR-21 FLuc, for some of the entries so far:
compound	miR-21 FLuc
CCCCNC(=O)N1CCc2ccccc2C1	-24.0%
O=S(=O)(Nc1ccccc1N1CCCCC1)c1cccs1	0.1%
COCCCNC(=O)C(=O)N/N=C/c1ccc(OCC(=O)Nc2cccc(Cl)c2C)c(OC)c1	-2.5%
COc1ccc(C(=O)CSc2nnc(-c3cc4ccccc4cc3O)n2Cc2ccco2)cc1	25.8%
Cc1cc(/C=C(\C#N)C(=O)NC2CCCCCC2)c(C)[nH]1	-54.5%

# Next results follow.
SMILES,GLA inh pH 4.5,Rango-impB inh,miR-21 FLuc,Rango dissoc inh
CCCn1nnc(NC(=O)C(c2ccccc2)c2ccccc2)n1,4.4,-1.9%,-4.8%,1.6%
O=C(OCC(=O)N1CCCC1)c1c[nH]c2ccccc12,.,-1.6%,.,6.7%
CC(=O)Nc1c2c(nn1-c1ccc(C)cc1C)CS(=O)C2 (configuration not stated),.,0.2%,-0.8%,6.8%
O=C(CCCSc1nc2ccccc2[nH]1)NCc1ccccc1Cl,-0.1,1.4%,-8.9%,0.9%
COc1cc(/C=C/C(=O)OCC(=O)NCCN2C(=O)CSC2=O)ccc1OC(F)F,0.5,0.6%,-9.8%,0.3%
CCCCOc1ccc(C(=O)NNC(=O)C2C3CCC(C3)C2C(=O)O)cc1 (configuration not stated),.,-1.8%,-19.6%,0.2%
Cc1cccc(SC2CCN(Cc3nc(CC4CC4)no3)CC2)c1,-7.9,4.3%,-1.3%,0.2%
CN1CCN(S(=O)(=O)c2ccc(NC(=O)Nc3cccc(Cl)c3)cc2)CC1,-9.4,1.4%,8.6%,-20.0%
Cc1ccc(-c2ccc(C(=O)O)[nH]2)cc1,6.0,-0.1%,-30.4%,?
O=C(NCCc1csc(-c2cccnc2)n1)c1ccc(Br)o1,0.8,-1.6%,-10.3%,?
COC(=O)[C@@H](NC(=O)NCc1ccco1)C(C)C,1.8,-3.3%,0.2%,4.7%
CCC1CCCCN1C(=S)NC1CCCCC1 (configuration not stated),-10.8,-2.0%,-9.7%,-10.0%
COc1ccc(CCNC(=O)C(C(=O)c2ccccc2)n2ccccc2=O)cc1OC (configuration not stated),-3.4,1.5%,4.7%,-9.8%
Cn1nnnc1SCCNCc1ccccc1OCc1ccc(F)cc1,0.5,0.6%,-10.6%,?
Cc1nn(CC(=O)Nc2cc(S(=O)(=O)N3CCOCC3)ccc2Cl)c(C)c1[N+](=O)[O-],.,-0.6%,.,-2.0%
O=C(/C=C/c1cccs1)Nc1scc(-c2ccccc2)c1C(=O)O,-13.6,-5.7%,1.5%,-2.0%
CCOc1ccccc1NC(=O)c1ccccc1-c1ccccc1,.,-2.2%,7.6%,-10.0%
COc1cc(CCC(=O)NCc2ccc3c(c2)OCO3)cc(OC)c1OC,.,3.4%,-0.1%,-11.4%
O=[N+]([O-])c1cc2c(c(CSc3nnc4ccccn34)c1)OCOC2,0.0,4.1%,-16.5%,-10.3%
Cc1ccc(S(=O)(=O)NC(CCC(N)=O)C(=O)NCc2ccc3c(c2)OCO3)c(C)c1 (configuration not stated),.,-0.6%,.,2.0%
COCCN(CCOC)c1ncnc2c1cnn2-c1ccc(Cl)cc1,-14.5,2.0%,-73.9%,-0.3%
O=C(NCc1ccccc1)C1CCCN(S(=O)(=O)c2ccc(F)cc2)C1 (configuration not stated),.,-2.2%,-0.6%,0.4%
Cc1ccc2c(c1)c(C1=NC(=S)NC1=O)c(O)n2C,-0.9,-2.6%,0.0%,1.1%
CC1CCCCC1NC(=O)Cn1cccc1C(=O)c1ccccc1 (configuration not stated),.,0.8%,-8.3%,-6.5%
COc1ccc(CCNC(=O)CC2Oc3ccc(Cl)cc3NC2=O)cc1OC (configuration not stated),1.9,-1.1%,-9.1%,14.7%
CC1CN(C(=O)COC(=O)c2ccccc2O)CC(C)O1 (configuration not stated),.,1.0%,-2.5%,-1.4%
CCc1nccn1Cc1cc(C=O)ccc1OC,10.3,-3.8%,1.1%,-8.9%
CCN(C(=O)COC(=O)c1cn(-c2ccccc2)nc1-c1ccccc1)C1CCS(=O)(=O)C1 (configuration not stated),-3.5,?,-4.7%,-9.4%
O=[N+]([O-])c1ccc(N2CCN(C(=S)Nc3ccc(F)cc3)CC2)cc1,-3.3,-3.7%,11.4%,?
COc1ccc(CC(=O)Nc2ccc(S(=O)(=O)N3CCOCC3)cc2)cc1,.,-2.8%,.,-4.8%
COc1ccc(C(=O)Nc2ccc(C(=O)NCCc3ccccc3)cc2)cc1,-0.3,3.9%,-15.6%,-13.0%
CCN(C(=O)c1cn(C)c(=O)c2cc(OC)c(OC)cc12)c1cc(OC)ccc1OC,-26.7,-0.5%,-18.6%,-4.7%
CC(=O)c1cccc(CN2CCC(CO)(CCOc3ccccc3)CC2)c1,.,0.3%,6.6%,2.7%
CC(=O)C1=C(C)NC(C)=C(C(C)=O)C1c1cccs1,-2.8,?,-1.2%,-22.7%
COc1cc(/C=C/C(=O)OCC(=O)NC(=O)NC2CCCCC2C)ccc1OC(F)F (configuration not stated),.,-1.4%,.,-12.6%
Cc1ccsc1/C=N/Nc1ncc(Cl)cc1Cl,4.2,-0.4%,-8.6%,-10.8%
CCOC(=O)C1=C(C)NC(=O)CC1c1cc(OC)c(OC)cc1Br (configuration not stated),8.1,-0.3%,-0.6%,-7.1%
Cc1ccc(NC(=O)CC(NCCN2CCOCC2)C(=O)O)cc1Cl (configuration not stated),1.0,-0.6%,0.7%,-5.7%
CCOC(=O)C1=C(CSc2nc3c(cc2C#N)CCC3)OC(N)=C(C#N)C1c1ccccc1 (configuration not stated),-1.6,?,-35.5%,?
CCCNC(=O)C(C)n1c2ccccc2c2nc(=O)cc(C)n21 (configuration not stated),7.8,.,-1.8%,.
CCn1c(-c2ccc(N)cc2)nc2ccccc21,-2.5,-4.3%,-54.1%,41.0%
COc1cc2c(cc1OC)C(c1ccc(N(C)C)cc1)NCC2 (configuration not stated),.,1.8%,0.8%,-4.9%
CC(C)C(NC(=O)c1ccc(F)cc1)C(=O)N1CCN(c2ccccn2)CC1 (configuration not stated),.,-0.3%,.,-2.5%
CC(=O)c1ccc(NC(=O)C(=O)c2cn(CC(=O)N3CCCCC3)c3ccccc23)cc1,0.0,-4.0%,-4.7%,2.7%
